# Source: PubChem (ICCB-Longwood Screening Facility, Harvard Medical School)
# CapD inh = CapD enzyme inhibition; purified CapD enzyme, fluorescence intensity read-out; hits give low values; some hits fall short of the stated cut; hit rate 0.23% among 140,000; z-score (concentration not given with the values);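 active = z-score under -4 in either of two replicates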;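 note: stock transfer was 100 nL into about 40 µL; score is relative to mean and spread of the plate; one replicate is shown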
# AID504770 = E. coli YBA685 growth inhibition, screen for V. cholerae RctB inhibitors. E. coli YBA685 rctB-dependent plasmid, OD600 growth, 3 h; hits give low values. z-score (concentration not given with the values). hit rate 0.27% among 130,000;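 active = z-score under -2 on both plates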;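 note: wells of about 30 µL received 100 nL stock; score is relative to mean and SD of the test wells; the first replicate is given; strong numbers were not always called active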
# Starred values were filed as active, the others as inactive; i = inactive; x = not tested or not shown; & = joins results of further samples.
SMILES,CapD inh,AID504770
CC1(C)CC2(CC(C)(C)OC2=O)C(=O)O1,-0.015,x
CN(Cc1ccccc1)C(=O)Cn1ncc2ccsc2c1=O,-0.65,-0.75
CN(C)c1ccc(C2CC(=O)C=C(NCc3cccs3)C2)cc1 (configuration not stated),-1.6,-0.95
O=S(CC(O)(c1ccccc1)c1ccccc1)c1ccc(Cl)c(Cl)c1 (configuration not stated),-0.17,x
O=C(CSc1cnccc1C(F)(F)F)N1CCN(Cc2ccccc2)CC1,-0.2,x
c1cc(Nc2ncnc3sccc23)cc(-c2nnc3n2CCCCC3)c1,x,-1.1
CCOc1ccc(C2=NN3C(C2)c2cccc(OCC)c2OC3c2cc(OC)ccc2OC)cc1 (configuration not stated),-0.43,x
COc1cc2c3nc4n(c(=O)c3n(CC(=O)NC3CCCC3)c2cc1OC)CCS4,x,-0.85
CC(C)C(=O)c1cc2c(cc1N)OCCO2,0.02,-0.95
COc1cc(SC)ccc1C(=O)N(C)Cc1ccccc1,-0.035,-1.1
O=C(Cn1cnc(S(=O)(=O)N2CCCCC2)c1)NCc1ccco1,0.69,-0.1
Cc1cc2c(cc1C)NC(=O)CC(c1cc([N+](=O)[O-])c(Cl)cc1Cl)=N2,1.9,x
Cc1ccc(NC(=O)c2cccn(OCc3ccc(F)cc3)c2=O)cc1,0.12,-0.3
Cc1ccc(N2CC(C(=O)OCc3nc(N)nc(Nc4ccccc4C)n3)CC2=O)cc1 (configuration not stated),x,-0.35
CS(=O)(=O)/C(C#N)=C/c1ccc(-c2cccs2)s1,1.4,-0.4
CCOc1ccccc1-n1nnnc1SCC(=O)Nc1cc(C)ccc1C(=O)O,x,-0.7
CCn1c(=O)c(=O)[nH]c2cc(C(=O)NCCSCc3ccco3)ccc21,x,0.3
COc1ccccc1N1CCN(C(=O)[C@H](C)N2CCN(c3nc4cc(Cl)ccc4s3)CC2)CC1,1.1,-1.1
CC(=O)Nc1ccc(NS(=O)(=O)c2ccc(Cl)cc2)c(C)c1,-0.44,x
CCN1CCN(Cc2ccc(NC(=O)Cn3ncc4c3-c3ccccc3OC4)cc2)CC1,0.18,-1.4
O=C(NCCCn1ccnc1)c1nc(-c2ccc(C(F)(F)F)cc2)no1,-0.18,-0.1
COc1ccc2oc(=O)cc(CN(C)Cc3ccco3)c2c1,4.2,-1.9
CN1CCCN(Cn2nc3ccccn3c2=S)CC1,x,0.95
O=C1CCCC(=O)N1c1cc(Cl)cc(Cl)c1,-0.26,x
CCCS(=O)(=O)c1c(S(=O)(=O)CCC)c2c(C)cc(C)cn2c1C(=O)c1ccc(Br)cc1,-0.045,x
SMILES,CapD inh,AID504770
COC(=O)c1sc(=S)n(-c2ccc(C)cc2)c1N,-2,0.95
CCCCNc1nc(SC(CC)C(=O)NCc2cccnc2)nc2ccccc12 (configuration not stated),-0.09,x
O=c1[nH]sc2ccccc12,x,-6.1
COc1cccc(-n2cc(C(=O)Nc3cccnc3)c3ccccc3c2=O)c1,8,-0.05
Cc1cccc(N2C(=N)S/C(=C\c3cn[nH]c3-c3ccc(F)cc3)C2=O)c1,2.3,x
CC(=O)Nc1ccc(S(=O)(=O)n2cnc3ccccc32)cc1,-0.06,-0.8
Cc1noc2ncnc(NC(C)(C)CCO)c12,0.11,0.5
N#CCn1c2ccc(Cl)cc2c2nc3ccccc3nc21,x,2.5
O=C(CNC(=O)c1ccc2ccccc2c1)OCn1nnc2ccccc2c1=O,x,0.05
O=C(O)CSC1(SCC(=O)O)CCCCCC1,-0.14,0.45
O=C(CSc1nc2ccccc2c2nc3ccccc3n12)c1ccccc1,0.1,-0.05
COc1nc(Nc2ccc(F)cc2)nc(OC)n1,-0.22,0
COC(=O)c1ccc(C)c(N(CCO)CCO)c1,0.53,0.25
CC1=CC(C)C(/C=N/n2cnnc2)C(C)C1 (configuration not stated),x,-0.15
CCCN(CCC)S(=O)(=O)c1ccc(C(=O)NNC(=O)OCCc2ccccc2Cl)cc1,9.4,x
Cc1nc(NNC(=O)c2ccccc2)cc(-c2ccccc2)n1,0.11,2
O=S(=O)(NCc1ccccc1)c1cc(Cl)ccc1Cl,0.21,-0.75
Cc1ccc(C)c(S(=O)(=O)NCc2ccc(C(=O)N3CCN(C)CC3)cc2)c1,0.4,0.55
O=C(OCC(=O)N1CCCC1)c1ccc(Cl)c(Cl)c1,0.51,-0.15
N#CC1(NC(=O)COC(=O)CSc2ccc(F)cc2)CCCCC1,x,-3.2
CCN1/C(=C\C=C2/C(=O)NC(=O)N(C)C2=O)Sc2ccccc21,x,1.2
O=C(CSc1nnc(Cc2ccccc2)n1Cc1ccccc1)NCc1ccco1,x,-0.1
O=C(Nc1cccnc1)c1ccc(COCC(F)(F)F)cc1,2.6,-0.15
Cc1ccc2c(c1)c(C)c(C)n2CC(O)Cn1nc(C)cc1C (configuration not stated),-0.71,-0.1
CCCc1ccc(-c2c3c(c(-c4ccccc4)n2-c2ccccc2OCC)C(=O)c2ccccc2C3=O)cc1,0.29,x
SMILES,CapD inh,AID504770
NNc1nc2ccccc2s1,2.5,-0.35
CC1(C)S[C@@H]2[C@H](NC(=O)[C@H](N)c3ccccc3)C(=O)N2[C@H]1C(=O)O,15&0.35,0.7
COc1cc(OC)cc(-c2nc3ccccc3c(=O)n2NC(=O)c2ccc(OC)c(Br)c2)c1,-0.3,x
Cc1ccc(-n2nc(C(=O)N3CCOCC3)cc2-c2ccc(Cl)cc2)cc1,0.03,x
OCCN1CCN(CCN2CCn3c2nc2ccccc23)CC1,0.11,-0.8
CC(C)CNP(=O)(OC1CC(C)CCC1C(C)C)c1ccccc1 (configuration not stated),-0.055,-0.7
CC(C)c1cc(NCc2ccccn2)n2c(nc3ccccc32)c1C#N,x,1
CCc1nc(NCCN2CCOCC2)c(C#N)c2c1COC(C)(C)C2,14,-0.5
CCSC1=C(C#N)C2(CCCCC2)C(C#N)=C(N)N1,x,-1
COc1ccc(-c2cc(C(=O)N3CCCC3C(=O)O)c(C)o2)cc1OC (configuration not stated),0.8,0.55
CC(=O)OC1=CSc2ccc(Br)c3cccc1c23,-0.055,0.1
FC(F)(F)c1cccc(/C=N/n2cnnc2SCc2ccccc2)c1,-0.12,0.15
Cc1ccccc1OCC(=O)N(C)Cc1c(C)nn(C2CCS(=O)(=O)C2)c1C (configuration not stated),x,0.05
CCC(=O)NC1CC(C(C)(C)NC(=O)CC)CC=C1C (configuration not stated),1.1,2
CN1CCN(C(=O)CCC(=O)c2ccc(F)cc2)CC1,x,0.85
COc1cc(C(=O)N2CCN(C(=O)C(Cc3cc(C)ccc3C)NC(C)=O)CC2)cc(OC)c1OC (configuration not stated),x,-0.25
O=S1(=O)CCC(N2C(=S)SC3CS(=O)(=O)CC32)C1 (configuration not stated),x,0.15
Cc1noc2nc(C(=O)NCCC3=CCCCC3)nc(N3CCOCC3)c12,-0.24,-0.95
CCc1c(C)n([O-])c2c([n+]1=O)CCCC2,0.16,-0.5
O=C(c1cc(=O)[nH]c2ccccc12)N1CCc2ccccc2C1,x,-0.2
Cc1nnc(NC(=O)CSc2c[nH]c3ccccc23)s1,-0.015,0.25
C#CCn1c(=NC(=O)CSCC(=O)Nc2cc(C)on2)sc2ccccc21,x,-0.3
CCOC(=O)/C=C1\NC(C)(C)Cc2cc(OC)c(OC)cc21,x,-0.2
Cc1nnc(SCC(=O)N(c2ccccc2)c2ccccc2)nc1C,x,-0.05
NC(=O)CCN(C1CCCCC1)S(=O)(=O)c1cccc2nsnc12,x,0.1

# A section from further up, for reference:
SMILES,CapD inh,AID504770
Cc1nnc(SCC(=O)N(c2ccccc2)c2ccccc2)nc1C,x,-0.05
NC(=O)CCN(C1CCCCC1)S(=O)(=O)c1cccc2nsnc12,x,0.1

# Returning to the listing, starting 3 compounds before the break.
SMILES,CapD inh,AID504770
CCOC(=O)/C=C1\NC(C)(C)Cc2cc(OC)c(OC)cc21,x,-0.2
Cc1nnc(SCC(=O)N(c2ccccc2)c2ccccc2)nc1C,x,-0.05
NC(=O)CCN(C1CCCCC1)S(=O)(=O)c1cccc2nsnc12,x,0.1
O=C(O)c1cc(Cl)nc(Cl)c1,9.1,0.6
Cc1cc2nc(C)n(CC(=O)N(C)c3ccccc3)c2cc1C,0.15,-0.65
COc1cccc(CCOC(=O)NCCCN2CCN(C)CC2)c1,-0.73,x
COc1cc(C2=N/C(=C/N3CCOCC3)C(=O)O2)cc(OC)c1OC,-0.34,x
COc1ccc(S(=O)(=O)CCC(=O)Nc2ccc(OC(F)(F)F)cc2)cc1,0.29,-0.15
COc1cccc(NC(=O)c2nn(C)c3c2COc2ccccc2-3)c1,1.1,-0.5
O=S(=O)(/C=C/c1ccccc1)c1ccc(F)c(Cl)c1,0.94,0.25
COC(=O)C1=CN(CCc2ccc(F)cc2)C=C(C(=O)OC)C1c1ccccc1C(F)(F)F,1.3,-1.3
CCOC(=O)C1CCN(c2ncc(/C=N/NC(=O)c3ccncc3)s2)CC1,-0.48,x
FC(F)(F)c1cccc(Nc2nc(NCc3ccccc3)nc(N3CCOCC3)n2)c1,-0.2,x
CC(C)Cn1c(SCc2nnc(-c3cccs3)o2)nc(O)cc1=O,x,-1.1
O=C(O)c1ccc(OCOc2ccc(C(=O)O)c(C(=O)O)c2)cc1C(=O)O,x,0.85
N#CCC(=O)NCc1ccco1,0.39,x
C=CCN1CC2=C(C1=O)C(c1ccccc1)NC(=O)N2 (configuration not stated),x,-0.6
O=C(CN1C(=O)C2(OCCO2)c2cc(Br)ccc21)NO,-0.31,x
CC1CCCN(c2cc(C(=O)Nc3ccc(F)cc3)c3ccccc3n2)C1 (configuration not stated),0.42,x
c1ccc(Cn2cnnc2)cc1,0.36,-0.8
O=C(NCCc1ccccc1)c1cc2cc(Cl)cc(Cl)c2oc1=O,-0.065,1.7
COc1ccc(NC(=O)C2CC2)c2ccccc12,i,0.2
CCn1c(C(=O)O)c(CC(=O)Nc2cc(OC)c(OC)c(OC)c2)c2ccccc21,-0.83,x
O=C(O)c1ccnn1C(F)F,x,0.15
CC(=O)N1CCC(C(=O)NCc2ccc(-n3cccn3)cc2)CC1,2.5,-0.5
Cc1ccc2nsnc2c1S(=O)(=O)N1CCCC1,x,1.5
CC1O[C@@H](O[C@@H]2C=C3CCC4C(CC[C@]5(C)[C@@H](c6ccc(=O)oc6)CC[C@]45O)[C@@]3(C)CC2)C(O)[C@@H](O)[C@H]1O (some centres not stated),-0.055,x
Nc1nc(SCCc2ccccc2)n[nH]1,0.11,0.4
SMILES,CapD inh,AID504770
CCCC1=C(C(=O)OCC)C(c2ccc(F)cc2)C(C#N)=C(N)O1 (configuration not stated),1.2,x
COc1ccc(C2OC(=O)CC2C(=O)NCc2ccc(C)cc2)cc1OC (configuration not stated),-0.3,0.4
Cc1ccc2cc(C3CC(c4ccccc4)=NN3C(=O)CCC(=O)O)c(=O)[nH]c2c1 (configuration not stated),x,0.65
CCOC(=O)C1=CN(Cc2ccc(OC)cc2)C=C(C(=O)OCC)C1c1cc2c(cc1Br)OCO2,32,x
Cc1ccc(CN2CNc3nnnn3C2)cc1,x,1.2
Clc1ccc2sc(N3CCCC3)nc2c1,-0.58,-0.6
CCc1ccc(S(=O)(=O)N2CCSC2c2ccccc2)cc1 (configuration not stated),0.075,0.35
CCCn1c2ccccc2c2nnc(SCC(=O)Nc3ccc(F)c(F)c3)nc21,-1.2,0.35
O=C(O)c1c2c(nc3ccccc13)CCC2,1.6,-0.35
O=C1N=C(c2ccccc2)O/C1=C\C=C\c1ccccc1,1,-0.75
COc1ccc(/C=C/C(=O)CCC(=O)O)cc1,-0.77,-0.6
Cc1cccc(N2CCN(S(=O)(=O)c3ccc(F)c(F)c3)CC2C)c1 (configuration not stated),0.61,x
CN1CCN(c2cnn(-c3ccc(F)cc3)c(=O)c2Br)CC1,0.065,x
COc1ccc(OC)c(S(=O)(=O)n2nnc3ccccc32)c1,0.23,x
Cc1ccn2cc(-c3ccc(O)c(O)c3)nc2c1,43,-0.9
FC(F)(F)c1ccc(N2CCN(C(c3ccccc3)c3ccccc3)CC2)nc1,0.76,-0.75
O=C(CNS(=O)(=O)c1ccccc1)Nc1ccc2c(c1)OCO2,x,0.8
COc1cc(C(=O)NCC(=O)N2CCN(c3ccccc3)CC2)cc(OC)c1OC,-0.17,x
Cc1c(Cl)cccc1-n1c(-c2ccco2)n[nH]c1=S,-0.2,x
CCc1c(C)oc2cc3ccccc3c-2c1C,-0.69,-0.15
COc1ccc(CCNC(=S)NCc2ccco2)cc1OC,0.36,-0.55
CCOc1cc(/C=C2/C(=N)N3C(c4ccccc4)=CSC3=NC2=O)ccc1OCCOc1ccccc1C,-0.26,x
C=CCNC(=O)C1CCCN(S(=O)(=O)CCC)C1 (configuration not stated),-0.63,-0.3
CNC1c2c(ccc3ccccc23)OCC1CO (configuration not stated),0.17,0.5
CC(C)(C(=O)Nc1cccc(Cl)c1)S(=O)(=O)c1ccc(C(F)(F)F)cn1,0.85,-0.05
CNC(=S)N/N=C/c1cc(Br)cc(Br)c1O,-0.82,x

# Ordered by length of the SMILES (ascending): some entries from above
SMILES,CapD inh,AID504770
CNC(=S)N/N=C/c1cc(Br)cc(Br)c1O,-0.82,x
COc1ccc(CCNC(=S)NCc2ccco2)cc1OC,0.36,-0.55
O=C(CNS(=O)(=O)c1ccccc1)Nc1ccc2c(c1)OCO2,x,0.8
Cc1cccc(N2CCN(S(=O)(=O)c3ccc(F)c(F)c3)CC2C)c1 (configuration not stated),0.61,x

# Entries of single compounds, looked up by structure. Screens in order: CapD inh, AID504770
# `CCc1c(C)oc2cc3ccccc3c-2c1C` in the list: -0.69, -0.15
# `O=C1N=C(c2ccccc2)O/C1=C\C=C\c1ccccc1` in the list: 1, -0.75
# `COc1ccc(OC)c(S(=O)(=O)n2nnc3ccccc32)c1` in the list: 0.23, x
# `C=CCNC(=O)C1CCCN(S(=O)(=O)CCC)C1` (configuration not stated) in the list: -0.63, -0.3
# `Cc1c(Cl)cccc1-n1c(-c2ccco2)n[nH]c1=S` in the list: -0.2, x
